TRPML1 inh: qHTS for Inhibitors of the Human Mucolipin Transient Receptor Potential 1 (TRPML1). 0.02% of 390,000 active. AID 624415, 2012. activity change, negative = inhibition, % (no concentration beside the values). TRPML1-inducible cells, Ca2+ dye fluorescence, FDSS; stronger effect = lower value; inhibition of EC80 agonist-evoked calcium signal. Mucolipin-1 (Homo sapiens), Q9GZU1; in the data active means activity change below about -50%; inconclusive means about -30% to -50%; inactive means above about -30%;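 note: stimulus is agonist 54-4 at its EC80 concentration; % is set by controls: 0 for no effect and ±100 for the full control effect; compound concentration not given in the record; the text of the record puts the active cut at -80%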
Target sequence (Q9GZU1 whole entry, looked up): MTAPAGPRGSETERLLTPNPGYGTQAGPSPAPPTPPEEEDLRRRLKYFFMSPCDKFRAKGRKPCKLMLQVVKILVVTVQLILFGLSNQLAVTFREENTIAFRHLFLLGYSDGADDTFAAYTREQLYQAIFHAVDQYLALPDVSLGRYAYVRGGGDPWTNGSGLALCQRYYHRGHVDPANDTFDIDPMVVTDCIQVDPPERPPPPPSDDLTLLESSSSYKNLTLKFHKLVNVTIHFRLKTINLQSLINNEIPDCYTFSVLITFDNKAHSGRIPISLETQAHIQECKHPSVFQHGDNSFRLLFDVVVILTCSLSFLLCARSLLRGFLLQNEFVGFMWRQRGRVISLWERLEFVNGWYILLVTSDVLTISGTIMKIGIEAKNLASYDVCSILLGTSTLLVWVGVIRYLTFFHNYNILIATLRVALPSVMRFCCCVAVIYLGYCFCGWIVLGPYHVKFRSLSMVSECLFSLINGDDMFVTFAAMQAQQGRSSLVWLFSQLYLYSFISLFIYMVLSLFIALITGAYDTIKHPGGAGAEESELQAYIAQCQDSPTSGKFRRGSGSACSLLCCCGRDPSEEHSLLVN
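TRPML1-DL cells, Tet-induced overnight (~16 h, 37 °C) at 1,500 cells/well, were loaded with Ca8 no-wash dye plus quencher for 45-90 min at room temperature. Compounds were pinned during FDSS kinetic reading; agonist 54-4 at EC80 (4 uM final) then added.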
ClpP mod: qHTS Assay for Activators of ClpP; 1.9% of 340,000 active; Potency, µM (top dose mostly 57.5 µM), without a hit: top-dose activity change, negative = active; purified B. subtilis ClpP, FRET peptide cleavage, 20 min; active = well fitted falling curve with a large enough effect; inconclusive = small, poorly fitted or top-dose-only effect; inactive = no such curve, though single readings can be large or run the other way; note: potency is the fitted concentration of half-maximal effect; the source files actives as falling curves though it sought activators and does not explain the sign; nearly all actives have a fitted effect of over 65% in size; many hits overshoot -100%
Target sequence (P80244 whole entry, looked up): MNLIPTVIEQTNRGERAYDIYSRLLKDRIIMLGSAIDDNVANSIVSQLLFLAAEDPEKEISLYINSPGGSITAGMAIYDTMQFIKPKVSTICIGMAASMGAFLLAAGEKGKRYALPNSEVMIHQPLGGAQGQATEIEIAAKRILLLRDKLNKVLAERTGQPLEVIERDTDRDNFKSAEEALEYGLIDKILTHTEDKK
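Purified B. subtilis ClpP, 10 microg/mL final in Tris/HCl pH8 with KCl, BSA, glycerol and Tween-20, cleaved an Abz/nitrotyrosine-quenched decapeptide. Fluorescence (ex 320, em 430) was read at 0 and 20 min at room temperature. Delta was normalized to 5.8 microM ADEP and DMSO/no-enzyme controls.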
* marks the source's active call; other numbers are inactive results; ? = inconclusive. The list is partial (hit frequency here may not be typical).

Order of values: TRPML1 inh, ClpP mod
> CC(C)NC(=O)CC(=O)Nc1ccc2nc3n(c(=O)c2c1)CCCCC3
  -13, -15%
> CC[C@@H]1CC2=C(C(=O)OC(C)(C)O2)[C@H](c2ccc(Cl)cc2)O1
  2, 2.1%
> O=C(Cn1c(=O)n(-c2ccc(F)cc2)c(=O)c2sccc21)Nc1cccc(C(F)(F)F)c1
  37, 0.6%
> Cc1ccc(C)c(N2CCN(CCCNC(=O)Cn3c(-c4cccs4)cc4ccccc43)CC2)c1
  -8, 28µM*
> COc1ccc(CN(Cc2ccco2)C(=O)c2ccccc2F)cc1
  15, 1.0%
> Cc1nn2c(=O)cc(COC(=O)c3cccs3)nc2s1
  30, -5.5%
> CC(=O)N1CCc2cc(Br)cc(S(=O)(=O)CCC(=O)N3CCN(c4ccc(F)cc4)CC3)c21
  2, -2.0%
> CC(C)n1c(=O)c2oc3ccccc3c2n(CC(=O)Nc2ccccc2Cl)c1=O
  2, -29%
> Cc1ccc(NC(=O)Cn2ccn(-c3ccc(F)c(F)c3)c(=O)c2=O)cc1C
  4, ?
> Cc1cc(C)nc(NC(=NCCc2c[nH]c3ccc(Cl)cc23)NC(=O)c2ccccc2C)n1
  45, 0.6%
> CC(C)c1cnc2c(c1SCc1cccc(F)c1)c(=O)n(C)c(=O)n2C
  -21, -3.2%
> O=C(CN1C(=O)C2(SCC(=O)N2c2cccc(Cl)c2)c2ccccc21)NCc1ccccc1 (stereo not drawn)
  27, 1.2%
> COc1ccc(Nc2ncc3c(n2)CCN(Cc2ccccc2C)C3)c(OC)c1
  -20, -0.2%
> Cc1cccc(NC(=O)C2CCCN(S(=O)(=O)c3c(C)n[nH]c3C)C2)c1 (stereo not drawn)
  -18, 1.1%
> Cc1ccccc1NC(=O)Cn1nc(-c2ccc(F)cc2)c2cnc3ccccc3c21
  15, -7.7%
> COC(=O)c1cnc(N2CCN(c3ccc(OC)cc3)CC2)c2ccccc12
  -7, -5.8%
> CNC(=O)C1CCC(Cn2c(=O)c3sccc3n(CC(=O)N3CCC(C)CC3)c2=O)CC1 (stereo not drawn)
  10, -3.0%
> N#Cc1ccccc1Cn1c(=O)n(CCCC(=O)NCc2ccc3c(c2)OCO3)c(=O)c2sccc21
  -2, -0.3%
> O=C(NCc1ccccc1Cl)NCc1noc2ccccc12
  3, 0.3%
> CCc1ccccc1NC(=O)Cn1nc(N2CCN(c3ccccc3OC)CC2)ccc1=O
  -3, 0.6%
> CCOC(=O)c1cc2c(=O)n3ccccc3nc2n(Cc2ccco2)c1=NC(=O)c1ccc(F)cc1
  27, 3.9%
> COc1ccc(N(CC(=O)NCCc2ccccc2)S(=O)(=O)c2c(C)nn(C)c2C)cc1
  -7, -4.2%
> CCN(CC)C(=O)c1sc2c(c1C)c(=O)n(Cc1ccccc1)c(=O)n2Cc1cc(C)ccc1C
  45, 0.6%
> CCOC(=O)c1cc2c(=O)n3ccccc3nc2n(C(C)C)c1=NC(=O)C(C)(C)Oc1ccc(Cl)cc1
  4, 4.2%
> COC(=O)c1c(NC(=O)c2nc(SCc3ccc(F)cc3)ncc2Cl)sc2c1CCCC2
  -2, 0.3%
> CC1(Oc2ccccc2-c2ccn[nH]2)CCN(Cc2ccc(OC(F)(F)F)cc2)C1 (stereo not drawn)
  75, -3.5%
> COC(=O)CN1C(C(=O)c2ccccc2)=C(OC(=O)c2ccccc2)c2ccccc2S1(=O)=O
  26, -1.8%
> Cc1cc(C)cc(Nc2cc(-c3ccccc3)nc(C)n2)c1
  29, -23%
> Nc1nonc1-c1nc2ccccc2n1Cc1c(Cl)cccc1Cl
  12, -9.2%
> NC(=O)c1nc(Nc2ccccc2)sc1NC(=O)c1c(F)cccc1F
  13, 5.5%
> CC(=O)Nc1c(C)nn(-c2ccccc2)c1N1CCC(C(=O)Nc2cc(F)ccc2F)CC1
  5, -0.6%
> Cc1oc(-c2ccc(C(=O)Nc3cc(F)ccc3F)cc2)nc1COc1ccccc1
  -16, -1.4%
> COc1cccc(CNC(=O)Nc2cc(C(=O)NCc3cccc(F)c3)ccc2N2CCCC2)c1
  4, ?
> O=C(NC1CCCCCC1)c1[nH]c(C(F)(F)F)nc1-c1ccccc1
  13, -9.5%
> Cc1ccc(-n2c(=O)c3cccnc3n2CC(=O)Nc2cc(C)cc(C)c2)cc1
  10, 4.2%
> COc1ccc(-c2nc3scc(CCNS(=O)(=O)c4ccc5c(c4)OCCO5)n3n2)cc1
  -14, 0.7%
> CCc1ccc(Cn2c(CNS(=O)(=O)c3ccc(F)c(Cl)c3)nc3cccnc32)cc1
  -9, -1.5%
> CC1CCC(NC(=O)c2ccc(CS(=O)(=O)c3c(Cl)cccc3Cl)o2)CC1 (stereo not drawn)
  16, -0.6%
> O=C(COC(=O)C(Cc1c[nH]c2ccccc12)NC(=O)c1ccc(Cl)cc1)c1ccc(Cl)cc1 (stereo not drawn)
  12, -1.1%
> CCCCn1c(SCC(=O)c2ccccc2)nc2sc3c(c2c1=O)CCCC3
  -24, 0.3%
> CC(=O)c1ccc(N2CCN(c3ncnc4c3c(-c3ccccc3)cn4-c3cccc(C)c3)CC2)cc1
  -5, ?
> C=C(C)Cn1c(SCC(=O)Nc2cc(C)ccc2C)nc2sc3c(c2c1=O)CCCC3
  2, -1.0%
> O=C(Cn1ncc2ccsc2c1=O)N1CCN(c2ccc(F)cc2)CC1
  -11, 0.4%
> O=C(Nc1ccc(Cl)cc1)c1cc2c(-c3ccccc3)nn(-c3ccccc3)c2s1
  12, ?
> COc1ccccc1-c1c(C)nn2c(N3CCN(c4ccccc4)CC3)cc(C)nc12
  -18, 0.2%
> CCC(C)OC(=O)/C(C#N)=C/c1ccc(-c2ccc(Br)cc2)o1 (stereo not drawn)
  -4, -2.8%
> Cc1ccc(CN2C(=O)C(O)(CC(=O)c3ccc(C)cc3)c3ccccc32)cc1 (stereo not drawn)
  6, -0.1%
> Cc1nc2ccn(Cc3ccccc3)c(=O)c2cc1C(=O)Nc1ccc(F)cc1Cl
  11, 4.1%
> O=C(NCc1ccccc1)c1ccc2c(c1)N(Cc1ccccc1)C(=O)c1ccccc1S2(=O)=O
  16, -3.0%
> CCc1ccc(CNC(=O)c2cc3c(s2)-c2ccccc2OC3)cc1
  12, 3.9%
> Cc1cc(C)c(NC(=O)c2ncoc2-c2ccco2)c(C)c1
  2, 0.1%
> CCOc1cc(C(=O)Nc2ccc(-c3nc4ncccc4o3)cc2C)cc(OCC)c1OCC
  -7, ?
> Cc1ccc(CCNC(=O)CCSCc2ccccc2Cl)cc1
  22, -1.5%
> Cc1ccc(CN(C(=O)c2ccccc2)c2ccccn2)o1
  -20, -1.1%
> COc1ccc(-n2c(/C=C/c3cccc4ccccc34)nc3ccccc3c2=O)cc1Cl
  4, 1.8%
> CCOc1ccc2oc(=O)cc(CN3CCN(C(=O)c4cccc(Cl)c4)CC3)c2c1
  -2, -17%
> Cc1ccc(-c2nn3c(=O)cc(CN4CCN(C(=O)c5ccc(C(C)(C)C)cc5)CC4)nc3s2)cc1
  7, -0.7%
> Cc1ccc(NC(=O)N2CCC(CN3CCC(C)CC3)CC2)cc1F
  3, 0.9%
> Clc1ccccc1Cc1cn2cc(-c3ccccc3)nc2s1
  11, -1.6%
> Cc1cc(C)c2c(NC(=O)c3ccccc3)c(C(=O)Nc3ccc(F)cc3)sc2n1
  31, ?

More structures follow:
canonical_smiles,TRPML1 inh,ClpP mod
Cc1oc(-c2ccc(C(=O)NCc3ccc(Cl)cc3)cc2)nc1CS(=O)(=O)c1ccccc1,5,?
COc1cccc(CNC(=O)C(=O)NCC(c2cccs2)S(=O)(=O)c2ccccc2)c1 (stereo not drawn),13,0.9%
O=C(Nc1ccc(Oc2ccccc2)cc1)C1CCN(S(=O)(=O)c2ccccc2)CC1,31,-2.6%
COc1ccc(-c2noc(CNS(=O)(=O)c3ccc(Br)cc3)n2)cc1OC,-5,1.5%
CCn1c(C(=O)N2CCC(C(=O)NCCc3ccccc3)CC2)cc2sccc21,0,0.0%
COC(=O)c1c(C)sc(-c2c(-c3ccc(OC)c(F)c3)[nH]c3c2c(=O)n(C)c(=O)n3C)c1O,-10,-0.4%
Cn1nccc1-c1ccc(C(=O)Nc2cccc(NS(C)(=O)=O)c2)c2occc12,47,-11%
CCOc1ccc(CNC(=O)c2ccc3c(c2)c(C)c(C)n3C)cc1,-5,-18%
COc1ccccc1-c1nc2n(n1)C(c1ccccc1Cl)C(C(=O)Nc1cccnc1)=C(C)N2 (stereo not drawn),-13,0.4%
Cc1cccc(C(=O)Nc2cccc(C(=O)OCc3cc(=O)n4nc(C(C)C)sc4n3)c2)c1,-25,-8.9%
O=C(Nc1ccc(Br)cc1)c1cccc(C(=O)Nc2ccc(Br)cc2)c1,6,-1.5%
COc1ccccc1/C=C/c1nc(C#N)c(NC2CCCCC2)o1,45,2.8µM*
CC(C)Oc1cccc(C(=O)Nc2ccc3oc(-c4ccccc4)nc3c2)c1,11,4.5%
O=C(NCc1ccccc1)c1ccc2c(c1)nc1n2CCOC1,9,0.9%
CCOC(=O)c1ccc(CN(Cc2ccc(F)cc2)S(=O)(=O)c2cc(C(=O)Nc3ccccc3CC)ccc2F)cc1,-14,0.0%
O=C(Nc1cccc(Cl)c1)c1csnn1,-8,-2.5%
CCOc1ccccc1NC(=O)Cn1cnc2sc(C)c(S(=O)(=O)N3CCC(C)CC3)c2c1=O,17,-0.5%
COc1ccc(-c2cc(C(=O)Nc3c(C)nn(Cc4ccccc4C)c3C)no2)cc1,-8,-19%
Cc1ccc(CNc2ncnc3onc(-c4ccc(F)cc4)c23)cc1,52,-8.0%
Cc1cc(Cl)ccc1NC(=O)CCS(=O)(=O)c1ccc2c(c1)CC(C)N2C(=O)C1CC1 (stereo not drawn),-5,0.6%
COc1ccc2c(c1)CCc1c(C(=O)Nc3cnn(Cc4ccc(Cl)cc4Cl)c3)noc1-2,-15,-1.2%
COc1ccc(Cn2nnc3c(=O)[nH]c(C4CCCN(C(=O)c5ccc(C)cc5)C4)nc32)cc1 (stereo not drawn),-5,-2.8%
COc1ccc(OC)c(C2c3c(oc4ccc(C)cc4c3=O)C(=O)N2CCCN(C)C)c1 (stereo not drawn),-1,-23%
CCS(=O)(=O)N1CC(=O)N(c2ccc(Cl)cc2C)C(C)(C(=O)NC2CCCCCC2)C1 (stereo not drawn),1,-3.1%
COc1ccc(Cl)cc1Nc1nc2ccc(C(=O)c3ccccc3)cc2n2cnnc12,-17,0.0%
CC1CN(C(=O)Nc2ccc(C(=O)NCc3ccccc3F)cc2)c2ccccc2S1 (stereo not drawn),-6,-2.1%
COc1ccc(OC)c(NC(=O)C2CCN(S(=O)(=O)c3ccc(C)cc3)CC2)c1,23,-2.8%
COc1ccc(F)cc1NC(=O)C1CCN(c2nc(-c3ccc(OC)c(OC)c3)no2)CC1,0,-1.9%
COc1ccc(-c2nc(CSCC(=O)N3CCN(c4ccc(F)cc4)CC3)c(C)o2)cc1,-5,-6.2%
CC(NC(=O)c1c2c(nc3ccccc13)C(=O)N(C1CCCCC1)C2)c1ccccc1 (stereo not drawn),-4,-21%
COc1ccc(OC)c(C2C(C(=O)Nc3ccc(C)cc3C)=C(C)Nc3c(C(=O)Nc4ccc(F)cc4)cnn32)c1 (stereo not drawn),9,?
COc1ccc(-n2ccnc(NCc3ccc(C)cc3)c2=O)cc1OC,1,-3.6%
COc1ccc(OC)c(S(=O)(=O)Nc2cc3c(cc2C)n(C)c(=O)c(=O)n3C)c1,9,-0.3%
CCOc1ccccc1CNC(=O)CN1C(=O)CCc2cc(S(=O)(=O)N3CCCCC3)ccc21,8,-1.1%
Cc1ccc(N2CC(NC(=O)c3ccc(S(=O)(=O)N4CCOCC4)cc3)CC2=O)cc1 (stereo not drawn),6,3.0%
CCCCCCNc1nc2c(c(=O)n(C)c(=O)n2C)n1Cc1cccc(C)c1,-6,-1.8%
COc1cccc(N2CCN(C(=O)c3c(C)oc4ncnc(N5CCCCC5)c34)CC2)c1,-18,0.0%
CCOc1ccc(CCNS(=O)(=O)c2c(C)nc3sc(C)cn3c2=O)cc1OCC,-2,-0.2%
COc1cc2c(C(=O)N3CCN(c4cc(Cl)ccc4C)CC3)cn(CC(C)C)c(=O)c2cc1OC,-2,-1.3%

Source: PubChem BioAssay
